# Lassa entry inh: qHTS for Inhibitors of binding or entry into cells for Lassa Virus; 300,000 tested, 1.2% active; Potency, µM (doses to about 37.9 µM), without a hit: top-dose activity change, negative = inhibition, actives largely listed as inhibitors; Lassa virus pseudotype entry inhibition, cell reporter; control for the full effect not named in the record; active means well fitted inhibition curve with a large enough effect; inconclusive means small, poorly fitted or top-dose-only effect, or effect the other way; inactive means flat fitted curve, though single readings scatter; tested in HEK293 cells; further: on the % scale 0 is the no-effect control and ±100 the full control effect; nearly all actives have a fitted effect of over 50% in size; luciferase read-out
# Cruzain Triton: qHTS Assay for Promiscuous and Specific Inhibitors of Cruzain (with detergent) | Cruzipain (Trypanosoma cruzi), P25779 | purified cruzain, Z-FR-AMC fluorescence, 0.01% Triton | Potency, µM, inactives show max response, negative = inhibition, actives largely listed as inhibitors | 200,000 tested, 0.43% active;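 further: plate controls were neutral wells for no effect and buffer without enzyme for full effect; nearly all actives have a fitted effect of over 40% in size; top concentration of the series not given in the record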
# Target sequence (P25779 123-467 limits assumed): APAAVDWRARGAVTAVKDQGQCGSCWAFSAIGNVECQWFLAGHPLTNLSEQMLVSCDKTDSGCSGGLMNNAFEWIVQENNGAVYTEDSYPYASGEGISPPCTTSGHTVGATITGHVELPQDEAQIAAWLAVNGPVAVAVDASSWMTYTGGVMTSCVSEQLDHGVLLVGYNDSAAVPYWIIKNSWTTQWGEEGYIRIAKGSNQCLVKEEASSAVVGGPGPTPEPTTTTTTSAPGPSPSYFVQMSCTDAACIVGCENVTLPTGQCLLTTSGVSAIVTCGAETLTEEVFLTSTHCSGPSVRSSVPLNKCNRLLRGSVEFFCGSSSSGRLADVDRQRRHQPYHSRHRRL
#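 Sodium acetate buffer (100 mM, pH 5.5) containing 5 mM DTT and 0.01% Triton X-100 hosted 1.5 nM cruzain and test compound for 15 min at room temperature. Cleavage of 2 uM Z-FR-AMC was then tracked by fluorescence.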
# 2A StopGo: High Throughput Screening for Foot and Mouth Disease Virus Antivirals; human cells with a luciferase reporter of 2A StopGo recoding; control for the full effect not named in the record; Potency, µM (series often up to 57.9 µM), inactives show top-dose signal change, negative = less light; 410,000 tested, 1.2% active; active = well fitted falling curve with a large enough effect; inconclusive = small, poorly fitted or top-dose-only effect; inactive = no such curve, though single readings can be large or run the other way; tested in HEK293T cells; further: on the % scale 0 is the no-effect control and ±100 the full control effect; nearly all actives have a fitted effect of over 45% in size; luciferase light after 4 h
# NS1 function inh: qHTS Assay for Inhibitors of Influenza NS1 Protein Function; 270,000 tested, 0.4% active; Potency, µM (titrated, usually from 46.1 µM), for the others: at the highest dose activity, positive = more growth; AID 2326, 2010; S. cerevisiae slowed by influenza A NS1, growth recovery by OD600; active means well fitted rising curve with a large enough effect; inconclusive means small, poorly fitted or top-dose-only effect; inactive means no such curve, though single readings can be large or run the other way; further: nearly all actives have a fitted effect of over 50% in size
#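 Recovery from NS1-induced slow growth read by OD600 in budding yeast switched to galactose assay medium (pH 6.0, -URA) at 1:100 dilution. Compound 23 nl per well; the matching strain lacking NS1 serves as control.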
# SARS PLP yeast: qHTS of Yeast-based Assay for SARS-CoV PLP; S. cerevisiae expressing SARS-CoV PLpro, growth rescue; control for the full effect not named in the record; 330,000 tested, 0.19% active; Potency, µM (top dose mostly 32.9 µM), without a hit: at the top dose activity, positive = growth rescue; active means well fitted rising curve with a large enough effect; inconclusive means small, poorly fitted or top-dose-only effect; inactive means no such curve, though single readings can be large or run the other way; further: 0% is about no effect; nearly all actives have a fitted effect of over 55% in size; growth read by luminescence after 48 h
# MARV entry inh: qHTS for inhibitors of binding or entry into cells for Marburg Virus; Marburg virus pseudotyped entry inhibition, cell reporter; control for the full effect not named in the record; about a third of the inactives were read at about 46 µM; Potency, µM (top dose mostly 37.8 µM), inactives show top-dose activity change, negative = inhibition, usual class: inhibitors; 300,000 tested, 1.8% active; AID 540276, 2011; active = well fitted inhibition curve with a large enough effect; inconclusive = small, poorly fitted or top-dose-only effect, or effect the other way; inactive = flat fitted curve, though single readings scatter; tested in HEK293 cells; about a fifth of its hits are not listed in these tables; further: on the % scale 0 is the no-effect control and ±100 the full control effect; luciferase read-out
# RE007 growth inh: qHTS Assay for Inhibitors of the HIV-1 protein Vpr; S. pombe RE007 Vpr strain, BacTiter-Glo ATP luminescence, 24 h; control for the full effect not named in the record; Potency, µM (doses to about 92.2 µM), inactives show at the highest dose activity change, negative = less growth; 360,000 tested, 0.21% active; AID 651644, 2012; active = well fitted falling curve with a large enough effect; inconclusive = small, poorly fitted or top-dose-only effect; inactive = no such curve, though single readings can be large or run the other way;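 further: on the % scale 0 is the no-effect control and ±100 the full control effect; nearly all actives have a fitted effect of over 50% in size; the assay follows cell death caused by Vpr and the record does not say whether a fall means rescue or toxicity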
#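 Fission yeast strain RE007, carrying one chromosomally integrated HIV-1 vpr copy, was seeded at OD 0.01 in PMG+AL medium with 23 nL pinned compound. After 24 h at 30 °C and 99% humidity, viability was read by BacTiter-Glo luminescence.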
# Cruzain inh noDet: qHTS Assay for Promiscuous and Specific Inhibitors of Cruzain (without detergent). Cruzipain (Trypanosoma cruzi), P25779. purified cruzain, Z-FR-AMC fluorescence, no detergent. Potency, µM, for the others: max response, negative = inhibition, most hits filed as inhibitors. 200,000 tested, 2.3% active. AID 1476, 2009;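 further: plate controls were enzyme without inhibitor for no effect and buffer without enzyme for full effect; nearly all actives have a fitted effect of over 40% in size; top concentration of the series not given in the record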
#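 Detergent-free condition (0.00005% Triton X-100) in acetate buffer pH 5.5 with DTT. 1.5 nM enzyme and compound were pre-mixed 15 min, then 2 uM Z-FR-AMC substrate added; reaction progress from fluorescence change between first and third reads (60 s).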
# * marks the source's active call; other numbers are inactive results; ? = inconclusive; / = no result given; & = joins results of further samples; [ ] = dose if it differs, or a comment. Unless noted, the call rests on the fitted dose curve; in most records, active means well fitted curve in the direction sought with a large enough effect; inconclusive means small, poorly fitted or top-dose-only effect, or another doubt; inactive means no such curve, though single readings can be large; an effect the other way counts as inactive or inconclusive. Potency means the concentration at half of the fitted maximal effect. An unsorted share of the library; about 4.7% have a hit in one of these screens.
# The first 3 compounds (preview)
SMILES,Lassa entry inh,Cruzain Triton,2A StopGo,NS1 function inh,SARS PLP yeast,MARV entry inh,RE007 growth inh,Cruzain inh noDet
COC(=O)c1ccccc1NC(=S)N(Cc1ccc2c(c1)OCO2)Cc1cc2cc(C)ccc2[nH]c1=O,-10.5%,-5.3%,-4.2%,11.2µM*,5.6%,?,6.7%,?
Nc1c(C=C2C=CC(=O)C=C2)c(=O)nc2snc(SCc3ccccc3)n12,/,/,40.5%[activator],?,-0.1%,/,-15.6%,/
CN(C)c1nnnn1-c1ccc(Oc2ccccc2)cc1,-21.7%,/,-12.9%,/,0.2%,?,41.2%,/

# The listing, from the start:
SMILES,Lassa entry inh,Cruzain Triton,2A StopGo,NS1 function inh,SARS PLP yeast,MARV entry inh,RE007 growth inh,Cruzain inh noDet
COC(=O)c1ccccc1NC(=S)N(Cc1ccc2c(c1)OCO2)Cc1cc2cc(C)ccc2[nH]c1=O,-10.5%,-5.3%,-4.2%,11.2µM*,5.6%,?,6.7%,?
Nc1c(C=C2C=CC(=O)C=C2)c(=O)nc2snc(SCc3ccccc3)n12,/,/,40.5%[activator],?,-0.1%,/,-15.6%,/
CN(C)c1nnnn1-c1ccc(Oc2ccccc2)cc1,-21.7%,/,-12.9%,/,0.2%,?,41.2%,/
COC(=O)C(C)Oc1ccc2c(c1)O/C(=C\c1ccco1)C2=O (stereo unspecified),19.1%[46.1 µM],/,22.1%,-56.5%,-8.1%,?,-9.1%,/
COc1ccc(CN2C(=O)[C@@H]3C(c4ccc(F)cc4)=NO[C@@H]3C2=O)cc1,-1.9%,-5.4%,4.8%,-9.1%,4.0%,12.7%,-2.0%,-3.6%
NC(N)=NC(=O)c1nc(Cl)c(N2CCCCCC2)nc1N,?,-12.7%&-0.3%,-13.6%&-7.1%,-8.7%,/,7.08µM*,-12.3%[18.4 µM],-26.3%&-16.6%
COc1ccc(-n2cc(-c3ccccc3)c3c(=S)nc[nH]c32)cc1,/,/,-20.3%,2.7%,22.0%,/,2.1%,/
Cc1ccc(C)c(NC(=O)C2CCN(c3nn4c(=O)cc(C)nc4s3)CC2)c1,?,-0.8%,-16.6%,/,/,?,/,-0.7%
Cc1cc(-c2nn3c(-c4ccccc4)nnc3s2)c2ccccc2n1,-0.8%,5.1%,-14.0%,-32.8%,-7.6%,-9.6%,5.5%,-7.7%
CN1CCN(C(=O)C2CC(c3ccc(F)cc3)=NO2)CC1 (stereo unspecified),/,4.4%,13.3%,18.7%,19.7%,/,9.4%,1.4%
COc1ccccc1N1CCN(S(=O)(=O)c2c(C)[nH]c(=O)[nH]c2=O)CC1,15.6%,/,10.3%,/,1.9%,4.2%[46.1 µM],-4.1%,/
COc1ccc(-c2csc(Nc3ccc(S(N)(=O)=O)cc3)n2)cc1OC,-21.8%,/,0.0%,/,-2.4%,?,30.7%,/
Cc1ccc(S(=O)(=O)Nc2ccc3c(c2)nc(CN2CCCC2)n3C)cc1,-0.6%,1.9%,-11.8%,-3.2%,10.9%,9.1%,13.7%,5.3%
O=C1C(=O)N(CCN2CCOCC2)C(c2cccc(Cl)c2)/C1=C(/O)c1ccc2c(c1)OCO2 (stereo unspecified),/,/,5.2%,2.8%,0.9%,/,6.2%,/
O=C(C1CCCCC1)N1CCC(c2nc3ccccc3[nH]2)CC1,-0.6%,1.2%,-11.0%,-7.9%,-6.5%,1.8%,1.5%,-9.2%
CSc1nnnc2ccccc12,2.5%,-1.1%,-5.8%,-5.9%,/,-7.6%,0.6%,9.7%
CCc1nnc(NC(=O)[C@@H](NC(=O)c2cccc(C)c2)C(C)C)s1,-3.0%,2.4%,-19.4%,-1.1%,7.5%,19.8%,-5.9%,3.7%
COc1ccc(-c2cnc(OC(C)(C)C)nc2OC(C)(C)C)cc1OC,?,-7.4%,-11.5%,-2.4%,-0.8%,?,8.8%,?
CC(C)c1ccc(NS(=O)(=O)c2cn(C)c(=O)n(C)c2=O)cc1,/,-3.5%,-13.4%,-17.6%,-1.5%,/,-9.9%,14.6%
COc1ccc(NC(=O)CN2C(=O)C3(SCC(=O)N3c3ccccc3)c3ccccc32)cc1Cl (stereo unspecified),-3.7%[46.1 µM],-5.1%,-14.3%,/,/,/,/,20µM*
C=CCn1cccc(C(=O)Nc2ccc(F)cc2)c1=O,/,/,9.7%,-3.6%,1.3%,/,-10.2%,/
Fc1ccccc1Cc1noc(CN(Cc2ccccn2)CC2CCCO2)n1 (stereo unspecified),-5.0%,/,4.7%,-7.8%,-1.4%,4.3%[46.1 µM],-2.8%,/
O=C(NCCO)C(F)(F)C(F)(F)C(F)(F)OC(F)(C(=O)NCCO)C(F)(F)F (stereo unspecified),-1.0%,2.5%,/,-1.9%,-11.0%,18.4%,9.7%,-13.7%
O=C(CCc1ccccn1)N1CCCC(Nc2ccc(F)cc2)C1 (stereo unspecified),/,/,-9.6%,0.5%,-0.2%,/,-7.9%,/
O=C(Nc1cccc(S(=O)(=O)N2CCOCC2)c1)c1cnccn1,/,/,?,-1.2%,0.3%,/,0.8%,/
CCCC(=O)Nc1cc(=O)n(C)c(=O)n1C,/,2.1%,-15.2%,-47.0%,1.4%,/,-4.7%,-2.5%
O=C(NCc1ccccc1)N1CCn2c(nc3ccccc32)C1,-27.7%[14.3 µM],-4.3%,0.0%,-15.2%,13.6%,27.9%,-4.3%,-5.5%
Cc1oc(-c2ccccc2F)nc1CSCC(=O)NCc1ccccc1,-3.3%[46.1 µM],-1.6%,-16.8%,/,/,3.5%[46.1 µM],/,5.4%
Cc1nn(C)cc1CNC(=O)C1C2CCC(O2)C1C(=O)O (stereo unspecified),/,1.0%,/,0.5%,-0.7%,-1.6%,/,-3.0%
C[n+]1c(/C=C/c2ccc(O)cc2)ccc2ccccc21,16.6%,/,55.9%[activator],-3.2%,0.6%,?,-27.7%,/
Cc1cc(/C=C(\C#N)C(=O)NC2CC2)c(C)[nH]1,?,-7.1%,25.8%,6.6%,5.5%,?,2.4%,-6.0%
COc1cc(OC)c(NC(=O)CCNS(=O)(=O)c2ccc3c(c2)CC(C)N3C(C)=O)cc1Cl (stereo unspecified),/,/,7.2%,-15.9%,-2.5%,/,-11.0%,/
COc1ccc(-c2nnn(CC(=O)N3CCN(c4ccccc4OC)CC3)n2)cc1OC,?,/,-24.0%,-3.9%,0.3%,?,15.6%,/
C=CCc1cc(/C=C2/NC(=O)N(CC)C2=O)cc(OCC)c1OCc1ccc(C(=O)O)cc1,?,-7.3%,?,4.5%,0.8%,?,-20.8%,4.5%
Cc1ccc(NCN2C(=O)C(=O)c3ccccc32)nc1,?,-7.7%,-2.8%,3.8%,?,?,-4.5%,0.8%
COc1cccc(N=c2oc3ccccc3cc2-c2nc3ccccc3[nH]2)c1,?,-0.5%,-23.0%,-60.3%,-1.6%,?,?,-14.0%
C/C(=N\OCC(=O)OCC(=O)NC(=O)c1ccc(OC(F)F)cc1)c1ccc2c(c1)OCO2,26.5%[46.1 µM],/,-3.9%,/,2.3%,7.2%,7.2%,/
CC(OC(=O)c1ccc2c(=O)n3c(nc2c1)CCC3)C(=O)NC1CCCCC1C (stereo unspecified),3.0%,/,-17.8%,-2.5%,-3.8%,-6.2%,-11.9%,/
COc1cc(C2CC(=O)c3cnc(NC(C)=O)nc3C2)cc(OC)c1OC (stereo unspecified),20.4%,-1.8%,7.0%,5.0%,-3.0%,2.6%,-18.0%,-4.2%
CN(C)/C=N/c1sc2c(c1C#N)CCC2,?,-6.1%,/,-9.7%,4.3%,9.0%,0.5%,-1.5%
COc1cc(C(=O)Nc2sc(C)c(C)c2C(=O)O)cc(OC)c1OC,11.5%,/,-20.9%,3.4%,-0.6%,9.0%[46.1 µM],16.4%,/
COc1ccccc1N1CCN(Cc2nc(-c3cc(OC)c(OC)c(OC)c3)no2)CC1,-17.3%[46.1 µM],-4.3%,-26.4%,/,/,-19.6%[46.1 µM],/,?
CCOc1ccc(CCNC(=O)COC(=O)c2cccc(N(C)C)c2)cc1OCC,2.7%,/,-4.9%,/,5.9%,21.5%,1.4%,/
Cc1ccc(C(CC(=O)O)NC(=O)c2ccc(S(=O)(=O)N3CCCC3)cc2)cc1 (stereo unspecified),10.2%,/,-18.8%,/,9.4%,?,10.0%,/
Cc1ccc(S(=O)(=O)Oc2ccc(/C=N/NC(=O)c3c(Cl)cnn3C)cc2)cc1,16.6%,-8.3%,1.7%,-0.7%,-2.5%,-21.3%,-7.0%,?
COc1ccc(/C=C2\Oc3cc(OCC(N)=O)ccc3C2=O)cc1OC,/,/,-14.6%,1.6%,-2.8%,/,0.2%,/
CCOc1ccc(C(=O)Nc2ccc(S(=O)(=O)N3CCOCC3)cc2)cc1OCC,-12.1%,-3.1%,-11.3%,-37.3%,2.5%,6.1%,3.9%,?
Oc1ccccc1C=NCC(O)c1ccccc1 (stereo unspecified),-0.3%,1.5%,-0.1%,-2.2%,5.4%,15.5%,-9.9%,2.5%
COc1ccc(Cl)c2sc(NC(=O)c3ccc(S(=O)(=O)N4CCCC4)cc3)nc12,3.6%[46.1 µM],4.2%,-2.5%,/,/,/,/,18.9%
CCCCN(CC)CCNC(=O)c1cc2c(=O)n(C)c3ccccc3c2s1,?,/,-9.9%,-0.5%,1.8%,7.94µM*,-19.7%,/
CCOC(=O)C1CCN(C(=O)CCCn2c(=O)c3cccn3c3cccnc32)CC1,0.7%[46.1 µM],/,-2.8%,8.8%,1.8%,-12.2%[46.1 µM],7.7%,/
